OX1R antagonist – OX1R (HCRTR1) antagonists, primary screen, fluorescence, CHO/OX1R cells, Fluo-8 calcium, orexin A. Orexin/Hypocretin receptor type 1 (Homo sapiens), O43613. Fluo-8 calcium fluorescence. inhibition, % at 5 µM. actives 0.43% (n = 330,000). AID 434989, 2010;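 active = inhibition above its plate's threshold, mean inhibition of all tested compounds on the plate plus 3 SD, cut at about 37% in these data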;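 note: 0% = orexin A challenge wells and 100% = SB-334867-A antagonist wells; not every result past the cut was called active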
Target sequence (O43613 whole entry, looked up): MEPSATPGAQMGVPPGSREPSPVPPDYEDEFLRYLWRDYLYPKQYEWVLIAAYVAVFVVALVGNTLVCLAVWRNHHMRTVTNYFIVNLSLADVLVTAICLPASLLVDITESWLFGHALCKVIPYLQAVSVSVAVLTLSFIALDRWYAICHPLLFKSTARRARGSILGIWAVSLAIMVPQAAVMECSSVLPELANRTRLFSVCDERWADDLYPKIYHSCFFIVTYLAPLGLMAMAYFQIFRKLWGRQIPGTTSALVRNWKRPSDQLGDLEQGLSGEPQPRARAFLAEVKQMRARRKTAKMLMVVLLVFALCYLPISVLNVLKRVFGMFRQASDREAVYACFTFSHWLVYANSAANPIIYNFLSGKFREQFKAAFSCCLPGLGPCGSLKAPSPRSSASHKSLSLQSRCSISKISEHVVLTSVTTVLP
The depositor's hits bear a star. Only part of the results is shown; most or all hits stand in other tables.

SMILES	OX1R antagonist
CC(C)CC(NC(=O)/C(=C\c1ccco1)NC(=O)c1ccco1)C(=O)O (centres undefined)	9.1
N#C/C(=N\Nc1ccc(Br)cc1)C(=N)N1CCOCC1	12.1
O=C(c1ccc2c(c1)N(Cc1ccccc1)C(=O)c1ccccc1S2)N1CCCC1	-30.4
CSc1c(C#N)c(N)nc2sc(C(=O)c3ccc(Cl)c(Cl)c3)c(N)c12	-8.6
CCN(CC)C(=O)Cc1cn(C)c2ccccc12	-9.1
CC(C)(C)c1ccc(-c2nc(C=O)c3ccccn23)cc1	-11.7
Cc1ccc(C23CC4CC(CC(NC(=O)NC(C)(C)CO)(C4)C2)C3)cc1	-27.7
COC(=O)CC1C(=O)NC(C)=C1C(=O)OC (centres undefined)	-18.4
Cc1cc(C)cc(N2CN=C3SCC(=O)N3C2)c1	-11.3
Cc1cc(C)n2nc(-c3ccco3)nc2n1	-8.4
COc1ccc(Cc2nnc(NC(=O)C3CC(=O)N(c4ccccc4C)C3)s2)cc1OC (centres undefined)	-10.2
Cc1cccc(NC(=S)NCC(c2cccnc2)N2CCOCC2)c1C (centres undefined)	0.1
CN(C)c1ccc(C=NCCC2(c3ccccc3)CCOC(C)(C)C2)cc1 (centres undefined)	-19.8
CC1CCCC(C)N1CCCNC(=O)Cn1c(=O)c2cccn2c2cccnc21 (centres undefined)	-6.8
O=c1c(F)cn(C2CCCO2)c(=O)n1Cc1c(Cl)cccc1Cl (centres undefined)	5.0
O=C(c1ccc(Sc2ccccc2)c([N+](=O)[O-])c1)N1CCOCC1	-18.6
CCN=C1SC(CC(=O)NC(N)=O)C(=O)N1CC (centres undefined)	-16.2
CCOc1ccc(NC(=O)C2CCCN(S(=O)(=O)c3c(C)noc3C)C2)cc1 (centres undefined)	-14.8
O=S(=O)(Nc1cccc(-c2cn3cccnc3n2)c1)c1ccccc1	-18.8
COc1ccc(C2CC3CC(c4ccccc4)N2O3)cc1 (centres undefined)	-24.8
O=C(/C=C(\O)c1ccc(Cl)cc1)C(=O)NNC(=O)C(O)(c1ccccc1)c1ccccc1	-19.1
COc1ccc(S(=O)(=O)N2CCCC2C(=O)Nc2nccs2)cc1 (centres undefined)	-2.8
CCC1Oc2ccc(C)cc2N(CC(=O)NCCN2CCCCCC2)C1=O (centres undefined)	-15.0
COc1ccc(OC)c(C(C)NC(=O)Nc2ccccc2)c1 (centres undefined)	-24.6
COc1cc(CNCc2cccnc2)ccc1OCC(=O)NC1CCCCC1	-28.8
CC(=O)Nc1ccc(S(=O)(=O)NC2(C(F)(F)F)NC(=O)N(C3CCCCC3)C2=O)cc1 (centres undefined)	-4.1
NC(=O)N1CCN(C(=O)c2ccco2)CC1	-10.1
CSc1nnc2c3cc(F)ccc3n(Cc3ccccc3)c2n1	-7.1
Cc1ccccc1OCc1nc(C#N)c(N2CCCC2)o1	-11.2
O=C(O)c1sc2cc(C(F)(F)F)cnc2c1-c1cccs1	-11.8
C=CCNC(=O)c1sc(-c2ccccc2)nc1C	-21.0
Cc1noc(C)c1S(=O)(=O)N1CCC(C(=O)N2CCN(c3ccccc3Cl)CC2)CC1	-11.4
O=c1[nH]c2cccc(Cl)c2n(CCNc2ncc(C(F)(F)F)cc2Cl)c1=O	-36.6
CCOc1ccc(OCC)c(NC(=O)CSc2nnc(-c3cccnc3)o2)c1	-17.5
CCOc1ccccc1C1CC(=O)NC2=C1C(=O)CC(C)(C)C2 (centres undefined)	-13.3
CCOc1ccc(C2C=C(c3ccc(F)cc3)Nc3ncnn32)cc1 (centres undefined)	-21.7
Cc1ccccc1N1CCN(c2ncnc3scc(-c4cccs4)c23)CC1	-27.7
CN(C(=O)COC(=O)c1cc[n+]([O-])cc1)c1ccccc1	-16.5
Cc1cc(=O)oc2cc(OCC(=O)NC3CC(C)(C)NC(C)(C)C3)ccc12	-5.4
CCNc1sc(S(C)(=O)=O)nc1S(=O)(=O)c1ccc(Cl)cc1	-16.0
Cc1c(Cl)cccc1-c1ccc(C(=O)N2CCN(c3ccc([N+](=O)[O-])cc3)CC2)o1	-3.2
Cc1nc2sc(C(c3cccs3)N3CC(C)CC(C)C3)c(O)n2n1 (centres undefined)	-15.7
Nc1ncc(Br)cc1S(=O)(=O)NCCC(=O)NCCc1ccccc1	-18.2
Cn1c(=O)c2c(nc(Cc3ccccc3)n2C)n(C)c1=O	-17.6
COCCn1c(SC(C)C(=O)Nc2ncc(Cl)cc2Cl)nc2ccccc21 (centres undefined)	-18.9
COc1cc(NC(=O)CN2CCN(c3ccccc3)CC2)c(C)cc1[N+](=O)[O-]	-8.8
CCN(C(=O)CCc1nc(-c2ccc(OC)cc2)no1)c1cc(OC)ccc1OC	-43.0
O=C(CSC1=NCCS1)Nc1nc2ccccc2s1	-14.9
CCN(CC(=O)Nc1ccc(NC(C)=O)cc1)CC(=O)Nc1cccc(Cl)c1	-13.5
Cc1ccc(/C(O)=C/C(=O)C(=O)NNC(=O)C(O)(c2ccccc2)c2ccccc2)cc1	-3.6
Nc1nnnn1/N=C/c1ccco1	-0.2
COC(=O)c1ccc(CN2CCC(CO)(CCOc3ccccc3)CC2)cc1	-29.1
COc1ccccc1CNC(=O)CCNC(=O)C1CCN(S(=O)(=O)c2ccccc2)CC1	-7.7
CC(=O)N1CCc2cc(C(=O)CN3CCCCC3)ccc21	-21.3
Cc1ccc(C(=O)Nc2ccc(F)cc2)o1	-1.7
Cc1ccnc(SCC(=O)N2CCN(c3ccccc3)CC2)n1	-23.2

Two entries picked at random from the list so far:
SMILES	OX1R antagonist
COC(=O)c1ccc(CN2CCC(CO)(CCOc3ccccc3)CC2)cc1	-29.1
Cc1ccc(C(=O)Nc2ccc(F)cc2)o1	-1.7

Additional results.
SMILES	OX1R antagonist
Cc1ccccc1S(=O)(=O)NCC1CCCO1 (centres undefined)	7.3
Cc1ccc(NC(=O)c2cc(-c3ccccc3)nn2-c2ccccc2)c(Br)c1	0.0
CCCNC(=S)N1CC2(C)CN(C(=O)C(=O)OCC)CC(C)(C1)C2=O	-21.6
S=C1Nc2ccccc2Sc2ccc(Cl)cc21	0.8
CCOC(=O)/C(C#N)=C/Nc1cc(C(C)(C)C)sc1C(C)=O	-15.4
O=C(Cn1c(=O)oc2ccccc21)Nc1nnc(N2CCCCCC2)s1	-8.3
COC(=O)C1CN(C(=O)COc2ccc(Cl)cc2Cl)c2ccccc2O1 (centres undefined)	-18.1
Cc1ccc(C(C)n2cc(C(=O)NCc3ccccn3)nn2)cc1 (centres undefined)	-20.4
COCc1cc(=O)[nH]c(N2CCN(C(=O)c3ccco3)CC2)n1	-3.2
CCS(=O)(=O)N1Cc2ccccc2CC1C(=O)Nc1ccc(F)c(F)c1 (centres undefined)	-12.9
O/N=C1/CCCCc2sccc21	-14.2
O=C(C1CCCN1S(=O)(=O)c1cccc2nsnc12)N1CCCCCC1 (centres undefined)	-2.6
COc1ccc(NC(=O)CC2Nc3cc(C)c(C)cc3NC2=O)c([N+](=O)[O-])c1 (centres undefined)	-7.1
CC(NC(=O)COC(=O)CCc1nc2ccccc2c(=O)[nH]1)c1ccccc1 (centres undefined)	-10.1
COc1ccc(Cn2c(/C=C/c3ccccc3)nc3ccccc32)cc1	-27.3
O=C(NCc1ccccn1)C1CCN(S(=O)(=O)N2CCCCC2)CC1	-0.1
O=c1cc(O)nc(-c2ccc(Cl)cc2)s1	-5.7
Cc1ccc(-n2ncc3c(NNC(=O)c4ccco4)ncnc32)cc1Cl	7.0
CCCCSC(=S)NC1CCS(=O)(=O)C1 (centres undefined)	4.6
CCN(CCO)Cc1csc2cccc(Br)c12	-24.0
Cc1cccc(C)c1NC(=O)C(NC=O)c1ccc(Cl)cc1 (centres undefined)	-4.9
COc1cc(/C=C/C(=O)O)cc(Br)c1O	-9.4
CCCN(CC(=O)Nc1ccc(F)c(F)c1F)C(=O)CCc1nc2ccccc2c(=O)[nH]1	-24.2
CC(=O)NCCn1c(SCc2ccccc2F)nc2ccccc2c1=O	-11.8
O=C(OCC(=O)N1CCCc2ccccc21)c1cncc(Br)c1	-29.2
CC(=O)OC(C(=O)n1nc(C)cc1C)c1ccccc1 (centres undefined)	-25.8
O=C(CCc1nc(-c2ccc(Cl)cc2)no1)NCC1CCCO1 (centres undefined)	-5.9
CC1(C)CC(=O)C=C(NNC(=O)OC(C)(C)C)C1	-7.8
Cn1c(C(=O)Nc2ccc3c(c2)OCCO3)cc2sccc21	-34.1
Cc1ccc(C)c(N(CC(=O)Nc2ccc(-c3nc4ccc(C)cc4s3)cc2)S(C)(=O)=O)c1	-16.5
COCCNC(=O)C(NC(=O)C1CCC(C)CC1)C(C)C (centres undefined)	-0.2
Cc1cc(C)cc(NC(=O)COC(=O)CCc2ccc(S(=O)(=O)N3CCOCC3)cc2)c1	-11.1
O=C(c1ccc(Cl)cc1)N1CCC(O)(CSc2ccc(Cl)cc2)CC1	-6.0
COC(=O)c1ccc(CSc2ncnc3c2oc2ccccc23)o1	-13.4
O=C(c1ccc(S(=O)(=O)N2CCCC2)cc1)N1CCN(c2cccc(Cl)c2)CC1	-20.1
Cc1cc2c(cc1C)C(c1ccccc1OC(C)C)CC(=O)N2 (centres undefined)	-37.2
COCCN(CCOC)c1nc(-c2ccc([N+](=O)[O-])cc2)nc2ccccc12	-22.9
COc1ccc(OC)c(N(CC(=O)Nc2cccnc2)S(=O)(=O)c2ccc(C)cc2)c1	-25.1
NC(=O)CSc1nnc2n(N)c(=O)c3ccccc3n12	-3.8
O=C1Nc2ccccc2C1C(C[N+](=O)[O-])c1ccccn1 (centres undefined)	-20.3
O=C(OC1CCOC1=O)c1ccc(S(=O)(=O)N2CCCCCC2)cc1 (centres undefined)	-14.0
CCCCCn1c(=S)[nH]c2cc(C(=O)N3CCN(C(=O)OCC)CC3)ccc2c1=O	-21.5
COC(=O)[C@@]12CCCN1[C@H](c1ccc(-c3ccc(Cl)c(Cl)c3)cc1)[C@H]1C(=O)N(C)C(=O)[C@H]12	-13.6
CCN(CC)CCn1c2c(c(SCC(=O)Nc3ccc4c(c3)OCCO4)nc1=O)CCCC2	-7.4
COc1ccccc1CCNC(=O)c1ccc(C)o1	-6.4
N#Cc1cnc(SCC(=O)c2ccccc2)nc1N	-7.9
O=C(c1ccc2nc(N3CCOCC3)sc2c1)N1CCCC1	-10.2
COc1cc(/C=N/Nc2ncc(C(F)(F)F)cc2Cl)cc(OC)c1OC	-34.4

Individual results from the list:
COc1ccccc1CCNC(=O)c1ccc(C)o1 | OX1R antagonist = -6.4
COc1cc(/C=N/Nc2ncc(C(F)(F)F)cc2Cl)cc(OC)c1OC | OX1R antagonist = -34.4
COC(=O)[C@@]12CCCN1[C@H](c1ccc(-c3ccc(Cl)c(Cl)c3)cc1)[C@H]1C(=O)N(C)C(=O)[C@H]12 | OX1R antagonist = -13.6
O=C(OC1CCOC1=O)c1ccc(S(=O)(=O)N2CCCCCC2)cc1 (centres undefined) | OX1R antagonist = -14.0
O=C(c1ccc2nc(N3CCOCC3)sc2c1)N1CCCC1 | OX1R antagonist = -10.2

Additional entries
SMILES	OX1R antagonist
COc1ccc(CSc2nnnn2-c2ccccc2)cc1	-11.9
COc1cc(/C=C2\SC(=O)NC2=O)ccc1OCc1ccc(Cl)nc1	-18.9
Cc1ccc(C)c(NC(=S)N2C3CCCC2CC(NC(=O)C2CC2)C3)c1 (centres undefined)	-10.1
Cc1ccc(/C=C2\SC(=S)N(CCCC(=O)Nc3ccc(O)cc3)C2=O)cc1	-16.4
CC1(C)Cc2c(sc(/N=C/N3CCOCC3)c2C#N)C(C)(C)N1	-16.8
CCc1ccccc1N(CC)C(=O)c1cn(CC)c(=O)c2cc(OC)c(OC)cc12	-40.3
S=c1[nH]nc(-c2cccnc2)n1/N=C/c1ccc(Br)s1	-16.7
CCCCn1[nH]c(-c2ccccc2)cc1=O	1.4
COc1ccc(-c2cc(C)no2)cc1S(=O)(=O)N1CCN(c2ccccn2)CC1	-28.0
Cc1ccc2oc(=O)n(CCOc3ccccc3Cl)c2c1	-25.1
COc1ccc(S(=O)(=O)N(C)CC(=O)Nc2cccc(C(C)=O)c2)cc1	-8.4
O=C(CSc1ccccc1)N1CCN(c2ccccn2)CC1	-23.5
CCOC(=O)c1ccc2c(c1)nc(-c1ccccn1)n2CC	-41.3
Cc1cccc(NC(=O)CCc2ccccc2)c1	-21.4
CCOc1cc(/C=C2\NC(=S)N(C)C2=O)ccc1OCc1ccc(C(=O)O)cc1	3.1
CC(/C=C/c1ccccc1)=N/NC(=O)CNC(=O)c1ccccc1F	-24.1
CCN1CCn2c3c(c4cc(Br)ccc42)CCCC31 (centres undefined)	-21.6
O=C(CCNC(=O)Cn1ccc2ccccc2c1=O)NCCc1ccc(Cl)cc1	-13.5
C=C(C)C1Cc2c(C)nn(-c3cccc4ccccc34)c2C1 (centres undefined)	-29.9
O=C1c2ccccc2C(=O)c2c1oc(C(F)(F)F)c2C(=O)c1ccccc1	2.1
CCn1nc(C)cc1-c1n[nH]c(=S)n1N	-21.3
COc1ccc2nc(NNC(=O)C3COc4ccccc4O3)sc2c1 (centres undefined)	-8.7
CCOc1ccc(OCC(=O)Nc2ccc(OC)cc2)cc1	-25.9
CCCN(c1ccc(C(C)C)cc1)S(=O)(=O)c1c(C)[nH]c(=O)[nH]c1=O	-43.4
COc1ccc(NS(=O)(=O)c2ccc3ccccc3c2)c2ncccc12	4.6
COc1ccccc1OCC(=O)N1CCNC1=O	-10.1
CC1CCN(c2nc3c(c(=O)n(C)c(=O)n3C)n2CCSc2ncccn2)CC1	-5.0
O=C(Nc1scc(-c2ccccc2)c1C(=O)O)c1ccccc1Cl	-3.4
CCc1ccc(S(=O)(=O)N2CCCC(N3CCN(c4ccc(OC)cc4)CC3)C2)cc1 (centres undefined)	-38.2
O=C(Nc1ccccc1C(=O)NCc1ccco1)Nc1cccc2ccccc12	-5.4
CC(C)NC(=O)c1cc(-c2cccs2)on1	-3.7

Assay outcomes deposited in PubChem by The Scripps Research Institute Molecular Screening Center.
